From PubChem BioAssay
ID4 SMM – binders of human ID4 protein, primary screen, biochemical, small molecule microarray, single point; DNA-binding protein inhibitor ID-4 (Homo sapiens), P47928; Flag-ID4 binding, fluorescence F/B; calls only; 31,000 compounds, 1.2% hits; AID 624137, 2012;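 active = spot signal over background at p below 0.07 in all four prints; compounds were printed on slides so no solution concentration is given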;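 note: a binder raises fluorescence above local background on the spot; about 2 pmol printed per array spot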
Target sequence (P47928 whole entry, looked up): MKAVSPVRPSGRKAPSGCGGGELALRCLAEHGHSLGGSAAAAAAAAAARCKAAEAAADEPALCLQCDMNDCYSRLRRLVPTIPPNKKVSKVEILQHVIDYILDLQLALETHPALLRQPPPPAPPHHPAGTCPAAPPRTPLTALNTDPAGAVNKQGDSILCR
mut p53 SMM – binders of human mutant p53, primary screen, biochemical, small molecule microarray, anti-GST fluorescence; AID 624136, 2012; calls only; small molecule microarray binding; 17,000 compounds, 0.4% hits; mutant tumor protein p53 (GST-tagged), Homo sapiens;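 active = compounds whose four printed spots each glow above background more than chance allows, each with a p-value under 7%; compounds were printed on slides so no solution concentration is given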;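 note: about 2 pmol printed per array spot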
c-Myc SMM – binders of human c-Myc, primary screen, biochemical, small molecule microarray, anti-His fluorescence; calls only; 17,000 compounds, 1.5% hits; AID 624141, 2012; His-c-Myc binding;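 active = spot fluorescence over background with P-value below 7% in all four replicate spots, showing protein binding; compounds were printed on slides so no solution concentration is given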;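 note: score is binary with 100 for all four spots passing and 0 otherwise; about 2 pmol printed per array spot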
STAT3 binder – STAT3 binders, primary screen, biochemical, small molecule microarray, single point, set 2 | Signal transducer and activator of transcription 3 (Homo sapiens), P40763 | His-STAT3 binding, anti-His fluorescence | calls only | 17,000 compounds, 0.2% hits;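 active = compounds whose four printed spots each show fluorescence over background unusually high for their array block, chance value under 7%; compounds were printed on slides so no solution concentration is given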;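 note: about 2 pmol printed per array spot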
Target sequence (P40763 whole entry, looked up): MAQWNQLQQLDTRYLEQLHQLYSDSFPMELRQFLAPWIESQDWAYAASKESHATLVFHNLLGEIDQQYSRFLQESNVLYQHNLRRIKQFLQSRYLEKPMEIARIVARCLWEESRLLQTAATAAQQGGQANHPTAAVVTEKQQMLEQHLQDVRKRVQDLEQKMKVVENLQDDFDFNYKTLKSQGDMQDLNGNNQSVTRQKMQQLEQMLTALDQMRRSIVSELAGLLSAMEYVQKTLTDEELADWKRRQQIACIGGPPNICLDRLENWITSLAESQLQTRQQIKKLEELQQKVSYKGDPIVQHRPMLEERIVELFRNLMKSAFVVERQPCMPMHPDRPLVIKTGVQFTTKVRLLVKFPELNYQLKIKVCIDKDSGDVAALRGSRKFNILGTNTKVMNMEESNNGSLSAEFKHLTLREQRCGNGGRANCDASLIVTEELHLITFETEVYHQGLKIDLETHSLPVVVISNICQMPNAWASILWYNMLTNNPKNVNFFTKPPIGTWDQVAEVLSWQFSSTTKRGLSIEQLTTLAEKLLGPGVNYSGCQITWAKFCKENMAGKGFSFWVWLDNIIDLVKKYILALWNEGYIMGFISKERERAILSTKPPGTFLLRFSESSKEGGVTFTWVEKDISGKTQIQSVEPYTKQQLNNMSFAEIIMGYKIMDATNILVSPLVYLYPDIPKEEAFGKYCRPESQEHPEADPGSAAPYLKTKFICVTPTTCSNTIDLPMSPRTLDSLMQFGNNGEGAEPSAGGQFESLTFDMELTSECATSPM
Calls only; i = inactive; x = not tested or not shown. Not all compounds are listed (hit frequency here may not be typical).

SMILES	ID4 SMM	mut p53 SMM	c-Myc SMM	STAT3 binder
C[C@H]1CN([C@@H](C)CO)C(=O)Cc2cc(NS(=O)(=O)c3cccs3)ccc2O[C@H]1CN(C)CC1CC1	i	i	i	i
Cc1noc(C)c1S(=O)(=O)Nc1ccc2c(c1)C(=O)N([C@@H](C)CO)C[C@@H](C)[C@H](CN(C)C(=O)CCC(F)(F)F)OCCCC[C@H](C)O2	i	i	i	i
C[C@@H]1CN([C@H](C)CO)C(=O)Cc2cc(N(C)C)ccc2O[C@@H]1CN(C)S(=O)(=O)c1ccccc1	i	i	i	i
C[C@@H]1CN([C@@H](C)CO)C(=O)CCCn2cc(nn2)CO[C@H]1CN(C)Cc1ccc2c(c1)OCO2	i	i	i	i
COC(=O)c1ccccc1S(=O)(=O)NC(=O)c1ccccc1	i	i	i	i
C[C@@H]1CCCCO[C@H](CN(C)CC2CC2)[C@H](C)CN([C@@H](C)CO)C(=O)c2cc(NC(=O)CCC(F)(F)F)ccc2O1	x	i	i	i
Cc1noc(C)c1NC(=O)N(C)C[C@@H]1OCCCC[C@H](C)Oc2ccc(NC(=O)CCC(F)(F)F)cc2C(=O)N([C@H](C)CO)C[C@H]1C	i	i	i	i
C[C@H](CO)N1C[C@H](C)[C@@H](CN(C)CC2CC2)Oc2ccc(NC(=O)c3ccncc3)cc2CC1=O	i	i	i	i
O=c1c(O[C@@H]2OC[C@H](O)[C@H](O)[C@H]2O)c(-c2ccc(O)c(O)c2)oc2cc(O)cc(O)c12	x	i	i	i
Cn1c(SCC(=O)c2ccc(Cl)cc2)nnc1-c1ccccc1O	i	i	i	i
COc1ccc(CN(C)C[C@@H]2Oc3ccc(NC(=O)Nc4ccc5c(c4)OCO5)cc3C(=O)N([C@H](C)CO)C[C@H]2C)cc1	i	i	i	i
C[C@@H]1CN([C@H](C)CO)C(=O)c2cccc(NC(=O)c3ccncc3)c2O[C@H]1CN(C)C(=O)Nc1cccc2ccccc12	i	i	i	i
C[C@H]1CN([C@@H](C)CO)C(=O)Cc2cc(N(C)C)ccc2O[C@H]1CN(C)Cc1ccc(C(F)(F)F)cc1	i	i	i	i
C[C@H](CO)N1C[C@H](C)[C@@H](CN(C)Cc2ccc(Oc3ccccc3)cc2)Oc2c(NS(=O)(=O)c3cccs3)cccc2C1=O	i	i	i	i
Cc1cc(C)nc(Nc2n[nH]c(COc3ccccc3)n2)n1	i	i	i	i
CC(=O)CSc1nc(N(C)C)nc(N(C)C)n1	i	i	i	i
C=C[C@@](C)(O)CC/C=C(\C)C(=O)O[C@@H]1[C@@H]2O[C@]2(C)[C@H]2[C@H](O[C@@H]3O[C@H](CO)[C@@H](O)[C@H](O)[C@H]3O)OC=C[C@@]12O	x	i	i	i
COc1ccc(CCNC(=O)c2cc(-c3ccccc3)on2)cc1OC	i	i	i	i
C[C@H](CO)N1C[C@H](C)[C@H](CN(C)C(=O)CCCN(C)C)OCCCC[C@H](C)Oc2ccc(NC(=O)NC3CCCCC3)cc2C1=O	x	i	i	i
Cc1ccc(CCC(=O)Nc2cc(Cl)cc(Cl)c2)o1	i	i	i	i
Cc1noc(C)c1NC(=O)N(C)C[C@H]1Oc2ccc(NS(=O)(=O)c3cccs3)cc2C(=O)N([C@@H](C)CO)C[C@@H]1C	i	i	i	i
O=C(Nc1ccccc1)NC1CC(C(=O)O)Nc2cc(Cl)cc(Cl)c21 (configuration not stated)	x	i	i	i
C[C@H]1CN([C@@H](C)CO)C(=O)c2cc(NC(=O)C3CC3)ccc2O[C@@H]1CN(C)S(=O)(=O)c1cn(C)cn1	i	i	i	i
O=C(Nc1cc(Br)ccc1C(=O)NCc1cccc(O)c1)c1ccccc1	i	i	i	i
C[C@H](CO)N1C[C@H](C)[C@@H](CN(C)C(=O)Nc2ccccc2)Oc2ccc(NC(=O)Nc3ccccc3)cc2C1=O	i	i	i	i
C=CCN1CCCc2c(-c3ccc(OCCO)cc3)noc2-c2cc(OC)c(OC)cc2CC1	x	i	i	i
C[C@@H]1CN([C@@H](C)CO)C(=O)c2cc(NC(=O)Nc3ccc(F)cc3)ccc2O[C@@H]1CN(C)Cc1ccncc1	i	i	i	i
C[C@H]1CN([C@@H](C)CO)C(=O)c2cc(NS(=O)(=O)c3cn(C)cn3)ccc2O[C@@H]1CN(C)S(=O)(=O)c1cn(C)cn1	i	i	i	i
Cc1noc(C)c1NC(=O)N(C)C[C@@H]1Oc2ccc(NC(=O)Cc3ccccc3)cc2C(=O)N([C@@H](C)CO)C[C@@H]1C	i	i	i	i
C[C@@H]1CN([C@H](C)CO)C(=O)c2cc(NC(=O)Nc3ccc(F)cc3)ccc2O[C@@H]1CN(C)S(=O)(=O)c1cn(C)cn1	i	i	i	i
COc1ccc([Si](C)(C)[C@@H]2[C@@H](CCn3cc([C@H](O)c4ccccc4)nn3)O[C@]3(C(=O)N(c4ccccc4)c4ccccc43)[C@H]2C)cc1	x	i	i	i
C[C@H]1CCCCO[C@H](CN(C)Cc2ccc(Cl)c(Cl)c2)[C@@H](C)CN([C@@H](C)CO)C(=O)c2cc(N(C)C)ccc2O1	x	i	i	i
COc1ccccc1NC(=O)c1ccc(OCC(=O)Nc2ccccc2F)cc1	i	i	i	i
Cc1ccc(S(=O)(=O)Nc2ccc3c(c2)C(=O)N([C@@H](C)CO)C[C@H](C)[C@H](CN(C)Cc2ccc(Oc4ccccc4)cc2)O3)cc1	x	i	i	i
COc1ccc(CN(C)C[C@@H]2Oc3ccc(NC(=O)C4CC4)cc3C(=O)N([C@H](C)CO)C[C@H]2C)cc1	i	i	i	i
CC(C)NC(=O)N(C)C[C@H]1OCCCC[C@@H](C)Oc2ccc(N(C)C)cc2C(=O)N([C@@H](C)CO)C[C@@H]1C	i	i	i	i
CC(C)NC(=O)N(C)C[C@@H]1OCCCC[C@H](C)Oc2ccc(NC(=O)CCCN(C)C)cc2C(=O)N([C@@H](C)CO)C[C@H]1C	i	i	i	i
Cn1cc(C2=C(c3ccc(Cl)cc3Cl)C(=O)NC2=O)c2ccccc21	i	i	i	i
Cc1noc(C)c1NC(=O)N(C)C[C@@H]1Oc2c(NC(=O)c3nc4ccccc4s3)cccc2C(=O)N([C@@H](C)CO)C[C@@H]1C	i	i	i	i
C[C@H](CO)N1C[C@H](C)[C@@H](CN(C)C(=O)Nc2ccc3c(c2)OCO3)Oc2ccc(NS(=O)(=O)c3cn(C)cn3)cc2C1=O	i	i	i	i
CC(=O)O[C@@H]1[C@@H](O)C[C@@]2(C)C(CC[C@@H](C)C23Cc2c(O)cc4c(c2O3)CN([C@@H](CCC(=O)O)C(=O)O)C4=O)C1(C)C (some centres not stated)	x	i	i	i
C[C@@H]1CCCCO[C@H](CN(C)S(=O)(=O)c2cccs2)[C@H](C)CN([C@@H](C)CO)C(=O)c2cc(NS(C)(=O)=O)ccc2O1	i	i	i	i
C[C@H]1CN([C@@H](C)CO)C(=O)Cc2cc(N(C)C)ccc2O[C@H]1CN(C)S(=O)(=O)c1cn(C)cn1	i	i	i	i
C[C@@H]1CN([C@@H](C)CO)C(=O)c2cccc(NC(=O)c3nc4ccccc4s3)c2O[C@@H]1CN(C)Cc1ccc(Oc2ccccc2)cc1	x	i	i	i
C[C@@H]1CN([C@H](C)CO)C(=O)c2cccc(NC(=O)C3CCOCC3)c2O[C@@H]1CN(C)C(=O)Nc1ccc(C(F)(F)F)cc1	i	i	i	i
C[C@H]1CN([C@@H](C)CO)C(=O)Cc2cc(NS(=O)(=O)c3ccccc3)ccc2O[C@H]1CN(C)S(=O)(=O)c1cccs1	i	i	i	i
C[C@@H]1CN([C@H](C)CO)C(=O)c2cc(NC(=O)NC3CCCCC3)ccc2O[C@@H]1CN(C)C(=O)Nc1ccc(F)cc1	i	i	i	i
CC(C)NC(=O)N(C)C[C@@H]1Oc2ncc(-c3ccccc3)cc2C(=O)N([C@H](C)CO)C[C@@H]1C	i	i	i	i
C[C@@H]1CN([C@H](C)CO)C(=O)c2cccc(NC(=O)Nc3ccc(C(F)(F)F)cc3)c2O[C@H]1CN(C)C	i	i	i	i
O=C(CSc1ncnc2sc3c(c12)CCCCC3)NCc1ccco1	i	i	i	i
The list goes on:
SMILES	ID4 SMM	mut p53 SMM	c-Myc SMM	STAT3 binder
CC(=O)O[C@@H]1c2c(ccc3ccc(=O)oc23)OC(C)(C)[C@@H]1OC(=O)C=C(C)C	i	i	i	i
COC(=O)CCC(=O)NC(=S)Nc1ccccc1F	i	i	i	i
C[C@@H]1CCCCO[C@@H](CN(C)C)[C@@H](C)CN([C@H](C)CO)C(=O)c2cc(N(C)C)ccc2O1	i	i	i	i
Cc1cc(C)n2nc(NCc3cccc([N+](=O)[O-])c3)nc2n1	i	i	i	i
C[C@H]1CCCCO[C@H](CN(C)C(=O)CCC(F)(F)F)[C@@H](C)CN([C@@H](C)CO)C(=O)c2cc(NC(=O)Nc3ccc4c(c3)OCO4)ccc2O1	i	i	i	i
Cc1nc2ccccc2nc1CSc1nc2ccccc2s1	i	i	i	i
CC(C)NC(=O)N(C)C[C@@H]1Oc2ccc(NC(=O)C3CC3)cc2C(=O)N([C@H](C)CO)C[C@H]1C	i	i	i	i
C[C@H]1CCCCO[C@@H](CN(C)Cc2ccncc2)[C@@H](C)CN([C@@H](C)CO)C(=O)c2cc(N(C)C)ccc2O1	i	i	i	i
C[C@@H]1CN([C@@H](C)CO)C(=O)c2cccc(NS(=O)(=O)c3ccc(Cl)cc3)c2O[C@H]1CN(C)S(=O)(=O)c1cn(C)cn1	i	i	i	i
C[C@@H]1CN([C@@H](C)CO)C(=O)c2cc(NS(C)(=O)=O)ccc2O[C@@H](C)CCCCO[C@@H]1CN(C)Cc1ccccc1	i	i	i	i

Among those listed so far, 6 have a Cl atom:
SMILES	ID4 SMM	mut p53 SMM	c-Myc SMM	STAT3 binder
Cn1c(SCC(=O)c2ccc(Cl)cc2)nnc1-c1ccccc1O	i	i	i	i
Cc1ccc(CCC(=O)Nc2cc(Cl)cc(Cl)c2)o1	i	i	i	i
O=C(Nc1ccccc1)NC1CC(C(=O)O)Nc2cc(Cl)cc(Cl)c21 (configuration not stated)	x	i	i	i
C[C@H]1CCCCO[C@H](CN(C)Cc2ccc(Cl)c(Cl)c2)[C@@H](C)CN([C@@H](C)CO)C(=O)c2cc(N(C)C)ccc2O1	x	i	i	i
Cn1cc(C2=C(c3ccc(Cl)cc3Cl)C(=O)NC2=O)c2ccccc21	i	i	i	i
C[C@@H]1CN([C@@H](C)CO)C(=O)c2cccc(NS(=O)(=O)c3ccc(Cl)cc3)c2O[C@H]1CN(C)S(=O)(=O)c1cn(C)cn1	i	i	i	i

(cont.)
SMILES	ID4 SMM	mut p53 SMM	c-Myc SMM	STAT3 binder
CC1CCC2(C)C(CC(O)C(O)C2(O)CO)C1(C)CCc1ccoc1 (configuration not stated)	x	i	i	i
Cc1ccc(NC(=O)CSCc2n[nH]c(=O)[nH]2)c(Br)c1	i	i	i	i
C[C@@H]1CCCCO[C@H](CN(C)C)[C@H](C)CN([C@H](C)CO)C(=O)c2cc(N(C)C)ccc2O1	i	i	i	i
C[C@H]1CN([C@@H](C)CO)C(=O)Cc2cc(NC(=O)Cn3cnnn3)ccc2O[C@@H]1CN(C)S(=O)(=O)c1ccccc1	i	i	i	i
C[C@@H]1CN([C@H](C)CO)C(=O)CCCn2nncc2CO[C@H]1CN(C)S(=O)(=O)c1ccc2c(c1)OCCCO2	x	i	i	i
C[C@@H]1CN([C@H](C)CO)C(=O)CCCn2nncc2CO[C@@H]1CN(C)S(=O)(=O)c1ccc(C#N)cc1	x	i	i	i
CNC[C@@H]1OCCCC[C@@H](C)Oc2ccc(NC(=O)C3CCCCC3)cc2C(=O)N([C@H](C)CO)C[C@@H]1C	i	i	i	i
CC(C)NC(=O)Nc1cccc2c1O[C@H](CN(C)CC1CC1)[C@@H](C)CN([C@H](C)CO)C2=O	i	i	i	i
COc1ccc(C(=O)O)cc1S(=O)(=O)NCc1ccccc1	i	i	i	i
C[C@H]1CN([C@@H](C)CO)C(=O)CCCn2cc(nn2)CO[C@@H]1CN(C)Cc1ccc(C(F)(F)F)cc1	i	i	i	i
C[C@@H]1CCCCO[C@H](CN(C)C(=O)Nc2ccc3c(c2)OCO3)[C@H](C)CN([C@@H](C)CO)C(=O)c2cc(NS(C)(=O)=O)ccc2O1	i	i	i	i
Cc1noc(C)c1S(=O)(=O)Nc1ccc2c(c1)C(=O)N([C@H](C)CO)C[C@H](C)[C@@H](CN(C)C(=O)Nc1ccc(F)cc1)O2	i	i	i	i
CCOC(=O)c1ccc(NC(=O)C(C)Sc2nc3ccccc3[nH]2)cc1 (configuration not stated)	i	i	i	i
C[C@H]1CN([C@@H](C)CO)C(=O)c2cccc(NC(=O)Nc3ccccc3)c2O[C@H]1CN(C)C(=O)NC1CCCCC1	i	i	i	i
C[C@@H]1CCCCO[C@H](CN(C)C(=O)Cc2ccccc2)[C@H](C)CN([C@H](C)CO)C(=O)c2cc(NS(=O)(=O)c3cn(C)cn3)ccc2O1	x	i	i	i
Cc1noc(C)c1NC(=O)Nc1cccc2c1O[C@@H](CN(C)C(=O)Nc1c(C)noc1C)[C@@H](C)CN([C@H](C)CO)C2=O	i	i	i	i
C[C@@H]1CN([C@@H](C)CO)C(=O)CCCn2cc(nn2)CO[C@@H]1CN(C)C(=O)Nc1ccccc1C(F)(F)F	i	i	i	i
